Screens (PubChem BioAssay)
PrP 5UTR inh – inhibition of PrP 5' UTR reporter expression; 340,000 tested, 0.35% active; cell-based PrP 5' UTR mRNA reporter, plate reader; inhibition, % (no concentration beside the values);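 active = every replicate at 50% or more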;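 also: 0 = median of the neutral control wells; tested in H4 reporter cells; numbers are from one replicate; inactives centre near -14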
Mtb hypoxia inh – PubChem AID 1159583 | fluorescence inhibition, % (test concentration not listed) | M. tuberculosis hypoxia-regulated fluorescent reporter, fluorescence | 300,000 tested, 0.1% active;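 active = 35 to 45% if threefold the growth effect, above 45% if 1.5-fold the growth effect; inactive = the rest, general growth blockers included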;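 also: wells of about 50 µL received 100 nL stock; 0% = vehicle wells and 100% = reference inhibitor wells; whole bacteria with a GFP reporter of the hypoxia response; strong numbers were not always called active; many hits fall short of the cut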
Sa ugtP lethal – growth inhibition of ugtP-null S. aureus, primary screen, RN4220 ugtP deletion, OD600. 16 h; some inactives read as strong as hits. growth inhibition, % (test concentration not listed). 330,000 tested, 0.54% active. AID 1259309, 2017;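 active = z-score under -3 and OD600 up to 0.15 on both plates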;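 also: plate controls were untreated wells for no effect and antibiotic for full effect; wells of about 80 µL received 100 nL stock; the first replicate is given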
Autofluor counter – compound fluorescence in toxin protease inhibitor counterscreen; compound autofluorescence counterscreen, microsphere flow cytometry; stronger effect = higher value; fluorescence intensity (no concentration beside the values); 360,000 tested, 3.1% active; AID 624483;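 active = at least 3 SD above the mean of all compounds, about 16000 in these data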;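 also: 100 nL of 1 mM stock went into each well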
RN4220 kill – growth inhibition of S. aureus RN4220, primary screen, OD600 | 16 h | inhibition, % (concentration not given with the values) | 330,000 tested, 0.33% active;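 active = z-score of -3 or lower and OD600 up to 0.18 on both plates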;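 also: plate controls were untreated cells for no effect and reference antibiotic for full effect; stock transfer was 100 nL into about 80 µL; one replicate is shown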
BJeLR lethal – MLPCN primary cell-based screen for lethality selective to Ras in HRASV12 cells. BJeLR (HRASV12) viability, CellTiter-Glo ATP luminescence, 48 h; reference of the scale not given here. inhibition, % (concentration not given with the values). 300,000 tested, 0.17% active;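 active = replicate mean above 50%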;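 also: 50 nL library stock added to about 25 µL; numbers are from one replicate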
Mtb hypoxia inh growth – recorded beside Mtb hypoxia inh, whose call it bears; growth inhibition, %; measured here: M. tuberculosis growth (absorbance);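 0% = vehicle and 100% = reference antibiotic; read after six days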
* marks the source's active call; other numbers are inactive results; x = not tested or not shown.

#1 Cc1ccccc1OC1CCN(C(=O)C2CCC(=O)N(C3CCCC3)C2)CC1 (stereo unspecified)
#2 Cc1ccc(S(=O)(=O)N(Cc2ccc(F)cc2)C(=O)N2CCN(C)CC2)cc1
#3 CCc1ccc(C(=O)COC(=O)c2cnc(C)cn2)cc1
#4 Cc1cc(C)nc(-n2ncc3c2CC(c2ccc(F)cc2)CC3=O)n1 (stereo unspecified)
#5 CCOC(=O)c1[nH]c(C)c(/C(O)=C2\C(=O)C(=O)N(CCCN(CC)CC)C2c2cccnc2)c1C (stereo unspecified)
#6 Cc1ccccc1OCCC(=O)Nc1ccccc1C(=O)NC1CC1
screen / no.	1	2	3	4	5	6
PrP 5UTR inh	-3	-30	-14	-3	-26	-13
Mtb hypoxia inh	15	9	12	-3	x	7
Mtb hypoxia inh growth	5	5	15	6	x	4
Sa ugtP lethal	14	-8	9	3	2	0
Autofluor counter	4230	5548	4342	3173	2883	4889
RN4220 kill	0.9	3.6	6.6	2.5	3.4	-1.4
BJeLR lethal	-5	0	-4	6	6	-9

#7 CC(=O)c1cccc(N(C(=O)c2ccco2)C(C(=O)NC2CCCCC2)c2ccc(C)o2)c1 (stereo unspecified)
#8 Cc1ccc2oc(-c3cc(NC(=O)c4ncn[nH]4)ccc3O)nc2c1
#9 COCCNC(=O)COC(=O)c1ccc(S(=O)(=O)N2CCOCC2)cc1
#10 COc1ccc(N=C2C(=Nc3ccc(OC)cc3)N(c3ccc(OC)cc3)C(=S)N2c2ccccc2)cc1
#11 CCCOc1cccc(-c2nc3ccccc3c(=O)o2)c1
#12 O=C(c1ccc(Cl)c(Cl)c1)N(Cc1ccco1)c1ccc(O)cc1
screen / no.	7	8	9	10	11	12
PrP 5UTR inh	-15	-11	-20	-35	-39	-12
Mtb hypoxia inh	10	x	20	9	9	-6
Mtb hypoxia inh growth	-1	x	-4	-1	18	9
Sa ugtP lethal	5	x	4	5	-4	-10
Autofluor counter	6184	5185	3438	10539	2279	3250
RN4220 kill	3.5	x	2.8	3.2	21	11
BJeLR lethal	-14	2	-8	6	6	17

#13 Cc1[nH]c(=O)c(C#N)c2c1CCCC2
#14 N#CC1=C(SCC(=O)c2ccccc2)NC2=C(C(=O)CCC2)C1c1ccco1 (stereo unspecified)
#15 Cc1onc(-c2c(F)cccc2Cl)c1C(=O)OCC(=O)NCc1ccccc1
#16 Cc1c(C)c2cc3c4c(oc3c(C)c2oc1=O)CCCC4
#17 COc1ccc(CCNC(=O)COC(=O)c2ccc(S(=O)(=O)N3CCCC3)cc2)cc1OC
#18 Cn1c2c(c(=O)n(C)c1=O)C(c1cccc(F)c1)C(C#N)=C(N)O2 (stereo unspecified)
screen / no.	13	14	15	16	17	18
PrP 5UTR inh	8	-94	-3	-34	-10	3
Mtb hypoxia inh	5	3	6	7	9	-7
Mtb hypoxia inh growth	-6	4	6	13	0	3
Sa ugtP lethal	4	5	2	-12	-3	4
Autofluor counter	22068*	3166	3913	5183	2915	4473
RN4220 kill	-1.1	1.0	0.6	9.2	-2.4	3.1
BJeLR lethal	9	24	x	-7	x	-4

A second format for 4 compounds above:
| nr | Molecule | PrP 5UTR inh | Mtb hypoxia inh | Mtb hypoxia inh growth | Sa ugtP lethal | Autofluor counter | RN4220 kill | BJeLR lethal |
| --- | --- | --- | --- | --- | --- | --- | --- | --- |
| 17 | COc1ccc(CCNC(=O)COC(=O)c2ccc(S(=O)(=O)N3CCCC3)cc2)cc1OC | -10 | 9 | 0 | -3 | 2915 | -2.4 | x |
| 15 | Cc1onc(-c2c(F)cccc2Cl)c1C(=O)OCC(=O)NCc1ccccc1 | -3 | 6 | 6 | 2 | 3913 | 0.6 | x |
| 16 | Cc1c(C)c2cc3c4c(oc3c(C)c2oc1=O)CCCC4 | -34 | 7 | 13 | -12 | 5183 | 9.2 | -7 |
| 14 | N#CC1=C(SCC(=O)c2ccccc2)NC2=C(C(=O)CCC2)C1c1ccco1 (stereo unspecified) | -94 | 3 | 4 | 5 | 3166 | 1.0 | 24 |

Additional results
#19 CCCCCN=C(N)N/N=C/c1c[nH]c2ccc(OC)cc12
#20 O=C(/C=N/O)NCc1ccncc1
#21 Cc1cc(C)cc(N2C(=O)NC(=O)/C(=C\c3cc(C)n(C)c3C)C2=O)c1
#22 Clc1ccc(-c2nnc(CCc3ccccc3)o2)c(Cl)c1
#23 COc1ccc(OC)c(S(=O)(=O)N2CCC(c3nc4ccccc4[nH]3)CC2)c1
#24 Cc1ccc2nc(C(F)(F)F)c(C#N)c(N)c2c1
screen / no.	19	20	21	22	23	24
PrP 5UTR inh	-9	-19	-24	-37	-14	-9
Mtb hypoxia inh	x	x	x	2	11	5
Mtb hypoxia inh growth	x	x	x	14	0	17
Sa ugtP lethal	x	x	x	-3	10	-7
Autofluor counter	5947	4310	2577	4220	4855	23566*
RN4220 kill	x	x	x	1.3	1.9	2.1
BJeLR lethal	70*	3	4	7	3	12

#25 CC1CC(C)CN(C/C=C/c2ccccc2[N+](=O)[O-])C1 (stereo unspecified)
#26 O=C(COc1ccc(-c2ccccc2)cc1)N1CCN(S(=O)(=O)Cc2ccccc2)CC1
#27 CCOC(=O)c1csc(NC(=O)CN2CCN(C)CC2)n1
#28 COCCN1C(=O)N(c2cccc(C)c2)C(=O)C1CC(=O)Nc1cc(OC)cc(OC)c1 (stereo unspecified)
#29 CN(CCCC(=O)NCc1ccc2c(c1)OCO2)S(=O)(=O)c1ccc([N+](=O)[O-])cc1
#30 CCOC(=O)/C=C/c1ccc2c(c1)S(=O)(=O)N(c1cccc(OC)c1)[C@H]2CC(=O)OCC
screen / no.	25	26	27	28	29	30
PrP 5UTR inh	x	-11	-10	-22	-12	-25
Mtb hypoxia inh	-8	x	3	3	-1	x
Mtb hypoxia inh growth	10	x	-5	-4	-1	x
Sa ugtP lethal	1	x	-4	4	11	x
Autofluor counter	x	16462*	4092	4670	5486	3333
RN4220 kill	1.5	x	-0.2	4.3	39	x
BJeLR lethal	1	0	6	-1	-1	5

Entries of single compounds, quoted from the list.
Listed for CCOC(=O)/C=C/c1ccc2c(c1)S(=O)(=O)N(c1cccc(OC)c1)[C@H]2CC(=O)OCC : PrP 5UTR inh = -25; Mtb hypoxia inh = x; Mtb hypoxia inh growth = x; Sa ugtP lethal = x; Autofluor counter = 3333; RN4220 kill = x; BJeLR lethal = 5
Listed for CN(CCCC(=O)NCc1ccc2c(c1)OCO2)S(=O)(=O)c1ccc([N+](=O)[O-])cc1 : PrP 5UTR inh = -12; Mtb hypoxia inh = -1; Mtb hypoxia inh growth = -1; Sa ugtP lethal = 11; Autofluor counter = 5486; RN4220 kill = 39; BJeLR lethal = -1

(next part)
#31 Cc1ccc(S(=O)(=O)Nc2nc(C)c(C(=O)NN)s2)cc1
#32 Cn1c(NC(=O)c2ccccc2F)c(-c2cccs2)c(=O)c2ccccc21
#33 COc1ccc(-c2nc(CS(=O)CC(=O)NCc3ccc(C)cc3)c(C)o2)cc1OC (stereo unspecified)
#34 O=C(Nc1ccccc1)c1ccc(CSc2ccccn2)cc1
#35 N#Cc1ccccc1OCC(=O)Nc1ccccc1C(=O)NC1CC1
#36 O=C(COC(=O)c1cc2ccccc2cc1O)c1ccccc1
#37 COc1ccc2c(c1)oc(=O)c1ccccc12
screen / no.	31	32	33	34	35	36	37
PrP 5UTR inh	-15	-3	-2	-71	-17	-23	-64
Mtb hypoxia inh	4	-5	-3	6	11	1	x
Mtb hypoxia inh growth	8	4	0	8	13	4	x
Sa ugtP lethal	5	-3	1	14	3	-1	8
Autofluor counter	3262	3425	3931	3293	5848	6021	6362
RN4220 kill	2.7	1.1	-0.2	5.7	0.4	1.2	-0.4
BJeLR lethal	16	8	7	13	-3	-14	7

Of the compounds above, 3 contain a Cl atom:
#12 O=C(c1ccc(Cl)c(Cl)c1)N(Cc1ccco1)c1ccc(O)cc1
#15 Cc1onc(-c2c(F)cccc2Cl)c1C(=O)OCC(=O)NCc1ccccc1
#22 Clc1ccc(-c2nnc(CCc3ccccc3)o2)c(Cl)c1
screen / no.	12	15	22
PrP 5UTR inh	-12	-3	-37
Mtb hypoxia inh	-6	6	2
Mtb hypoxia inh growth	9	6	14
Sa ugtP lethal	-10	2	-3
Autofluor counter	3250	3913	4220
RN4220 kill	11	0.6	1.3
BJeLR lethal	17	x	7

Retrieved by compound from the entries so far (2):
#28 COCCN1C(=O)N(c2cccc(C)c2)C(=O)C1CC(=O)Nc1cc(OC)cc(OC)c1 (stereo unspecified)
#37 COc1ccc2c(c1)oc(=O)c1ccccc12
screen / no.	28	37
PrP 5UTR inh	-22	-64
Mtb hypoxia inh	3	x
Mtb hypoxia inh growth	-4	x
Sa ugtP lethal	4	8
Autofluor counter	4670	6362
RN4220 kill	4.3	-0.4
BJeLR lethal	-1	7

Compounds were not picked by outcome, and some 4.1% of all compounds hit somewhere here.
